High-throughput results from PubChem.
HPGD inh: qHTS Assay for Inhibitors of HPGD (15-Hydroxyprostaglandin Dehydrogenase); Potency, µM, for inactives: at the highest dose activity change, negative = inhibition, usual class: inhibitors; actives 4.3% (n = 150,000); purified HPGD, NADH fluorescence kinetic, PGE2 substrate; active = well fitted inhibition curve with a large enough effect (not every such curve was filed as active); inconclusive = small, poorly fitted or top-dose-only effect, or another doubt; inactive = no such curve, though single readings can be large or run the other way;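 further: top concentration of the series not given in the record; plate controls included wells without enzyme; inactives centre near -10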
Target sequence (P15428 whole entry, looked up): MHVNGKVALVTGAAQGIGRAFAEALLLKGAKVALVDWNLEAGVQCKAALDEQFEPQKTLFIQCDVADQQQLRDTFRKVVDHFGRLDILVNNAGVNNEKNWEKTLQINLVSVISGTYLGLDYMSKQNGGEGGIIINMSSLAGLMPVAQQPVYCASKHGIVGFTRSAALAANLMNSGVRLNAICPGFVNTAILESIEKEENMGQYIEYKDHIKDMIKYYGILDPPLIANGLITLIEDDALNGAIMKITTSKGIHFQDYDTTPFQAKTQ
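20 nM HPGD preincubated 15 min at room temperature with compound in 50 mM Tris-HCl pH 8, 0.01% Tween 20. Started with 1 mM NAD+ and 30 uM prostaglandin E2; NADH fluorescence (360/450 nm) read 5 times over 30-s intervals, last minus first.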
The depositor's hits bear a star; ? = inconclusive. On the % scale 0 is the no-effect control and ±100 the full control effect; potency means the concentration at half of the fitted maximal effect.

SMILES	HPGD inh
O=C(NC1CCCCC1)c1ccc(Cl)c(NC(=O)c2ccccc2F)c1	-24%
O=C(O)CCC(=O)OCC1CCCCC1	-15%
CCOc1ccc(NC(=O)c2ccccc2OCC(=O)c2ccc(C)cc2)cc1	-12%
O=c1cc(-c2ccc(Cl)cc2)[nH][nH]1	-11%
O=C(NCc1cccs1)c1csc2ccccc12	?
COCCn1nnnc1C(c1ccc(Cl)cc1)N1CCSCC1 (stereo unspecified)	-4%
CCOC(=O)OCC	-11%
CCOC(=O)c1ccccc1NC(=O)CSc1ncc(C(=O)OCC)c(N)n1	-7%
CCOC(=O)NC(NCC(O)c1ccccc1)(C(F)(F)F)C(F)(F)F (stereo unspecified)	-2%
Cc1ccc(C(=O)C2COC(=O)C2)cc1 (stereo unspecified)	-1%
Nc1cc(-c2ccccc2)ccc1O	?
CCOCCCn1c(SCC(=O)NCc2ccco2)nc2c(sc3ccccc32)c1=O	-30%
CN(CC(=O)Nn1cnnc1)S(=O)(=O)c1ccc(Br)cc1	-10%
COc1ccc(OC)c(CN2C(=O)c3ccccc3C2C(=O)NCc2cccnc2)c1 (stereo unspecified)	-6%
CCc1nnc(NC(=O)C2CCCCC2)s1	?
CCOC(=O)C(NC(=O)CC)(Nc1cc(C)on1)C(F)(F)F (stereo unspecified)	6%
CC(=O)OCC1OC(Sc2cccc3cccnc23)C(OC(C)=O)C(OC(C)=O)C1OC(C)=O (stereo unspecified)	?
S=c1[nH]nc(-c2ccc(Br)o2)n1Cc1ccccc1	28µM*
Cn1c(=O)[nH]c(=O)c2c1nc(NCCCn1ccnc1)n2Cc1cccc(Br)c1	-23%
COC(=O)c1cccc(N(C(=O)c2ccco2)C(C(=O)NC2CCCC2)c2ccco2)c1 (stereo unspecified)	1%
Cc1cc(C)cc(N=Cc2[nH]c3ccc(Br)c(Cl)c3c2O)c1	?
CC(=O)NCc1ccc(S(=O)(=O)N/N=C/c2ccc(N(C)C)cc2)cc1	-16%
CCCCC(=O)Nc1cccc(NC(=O)c2ccccc2Br)c1	-4%
CCOc1ccc(/C=C2/SC(=O)NC2=S)cc1	13µM*
CCCn1c(SCC(=O)NCCc2ccccc2)nnc1-c1ccco1	-5%
CN(C)S(=O)(=O)N1CCN(C(=O)c2cccs2)CC1	-4%
Cc1nnc(SCC(=O)Nc2sccc2C#N)n1Cc1ccccc1	-22%
O=c1c(/C=C(\O)c2ccc(F)cc2)nc2ccccc2n1-c1ccccc1	-6%
O=C(NC1CCCc2ccccc21)c1cncc(Br)c1 (stereo unspecified)	-5%
O=C(O)c1ccc(OCc2ccccc2)c(Cl)c1	-7%

Retrieved one by one from the entries so far, two records:
SMILES	HPGD inh
CC(=O)OCC1OC(Sc2cccc3cccnc23)C(OC(C)=O)C(OC(C)=O)C1OC(C)=O (stereo unspecified)	?
CCOC(=O)C(NC(=O)CC)(Nc1cc(C)on1)C(F)(F)F (stereo unspecified)	6%

Remaining list, next part:
SMILES	HPGD inh
CCc1ccccc1NC1c2ccccc2C(=O)N1c1cccnc1 (stereo unspecified)	-7%
COc1ccc(C(=O)Nc2ccc([N+](=O)[O-])cn2)cc1OC	-9%
O=C(COC(=O)CCC(NC(=O)OCc1ccccc1)C(=O)OCC(=O)Nc1ccccc1)Nc1ccccc1 (stereo unspecified)	-23%
O=C1NNC(=O)C2C3C=CC(C4CC34)C12 (stereo unspecified)	-4%
COc1ccc(C2CC(=O)C3=C(C2)NC(C)=C(C#N)C3c2ccc(N(C)C)cc2)cc1 (stereo unspecified)	?
O=C(Nc1cccc(N=Cc2cc(Cl)cc(Br)c2O)c1)c1ccco1	-13%
CCCCNc1c(N)n(CCCC)c(=O)[nH]c1=O	-10%
C=CCn1c(SCCOc2ccc(OC)cc2)nnc1C(CO)NC(=O)c1ccc(OC)cc1 (stereo unspecified)	-4%
O=C1CC(SCCc2nc3ccccc3[nH]2)C(=O)N1c1ccc(Cl)cc1 (stereo unspecified)	-5%
O=C(CCS(=O)(=O)c1cc(Br)cc2c1N(C(=O)C1CC1)CC2)NCc1ccco1	-16%
Cc1ccc(NC(=O)CN2C(=O)NC(C)(c3ccc(Cl)cc3)C2=O)cc1S(=O)(=O)N1CCOCC1 (stereo unspecified)	-11%
O=S(=O)(Nc1ccc(Oc2ncccn2)c(Cl)c1)c1ccc(Cl)cc1	-11%
Clc1cccc(CSc2nnc(-c3c[nH]c4ccccc34)o2)c1	-19%
Cc1c(C(=O)Nc2cccc(C(F)(F)F)c2)oc2ccc(S(=O)(=O)N3CCOCC3)cc12	?
CC(C)c1cc(C(=O)Nc2cc(Cl)ccc2O)no1	5.6µM*
c1cncc(-c2nnc(-c3cccnc3)nn2)c1	8.9µM*
Cc1cccc(-n2ncc3c(N(CCO)CCO)ncnc32)c1	-12%
CCCCC1(CC(=O)OC)C(=O)N(c2ccccc2)N(c2ccccc2)C1=O	-2%
Cc1c(C(=O)C(=O)NCCC2=CCCCC2)c2ccccc2n1C	-8%
O=c1cc(CN2CCN(c3ccccc3O)CC2)nc2sccn12	?
CCCCS(=O)(=O)Nc1ccc2c(c1)ncn2C1CCCCC1	?
Cc1nnc(SCC(=O)NCc2cccs2)[nH]c1=O	-1%
CC(C)Oc1cccc(C(=O)Nc2ccc(Br)cc2F)c1	-21%
Cc1ccc(OC(=O)NC2CCS(=O)(=O)C2)cc1C (stereo unspecified)	-2%
CC(O)CC(C)O (stereo unspecified)	-5%
O=C(CN1C(=O)NC2(CCCC2)C1=O)NCCC1=CCCCC1	-2%
Cc1cc(C)nc(NC(=O)C(C)N2C(=O)c3ccccc3C2=O)n1 (stereo unspecified)	-19%
O=C(C1CCN(CC2CCCCC2)CC1)N1CCCC1	0%
O=C(CCC(=O)c1ccc(F)cc1)Nc1cccc(C(F)(F)F)c1	-17%
Cc1ccc(-n2nc3c(c2NC(=O)c2c(-c4ccccc4Cl)noc2C)CSC3)cc1	-11%

Sorted by value in HPGD inh (highest first): some entries from above.
SMILES	HPGD inh
O=C(C1CCN(CC2CCCCC2)CC1)N1CCCC1	0%
O=C(CN1C(=O)NC2(CCCC2)C1=O)NCCC1=CCCCC1	-2%
CC(O)CC(C)O (stereo unspecified)	-5%
Cc1ccc(-n2nc3c(c2NC(=O)c2c(-c4ccccc4Cl)noc2C)CSC3)cc1	-11%

Further compounds follow.
SMILES	HPGD inh
Cc1noc(C)c1C(=O)N1CCC2(CCN(Cc3ccc(C#N)cc3)CC2)CC1	-1%
FC(F)(F)c1nnc2sc(-c3ccncc3)nn12	-7%
NC1=NC2(CCC(c3ccccc3)CC2)n2c(nc3ccccc32)N1 (stereo unspecified)	-13%
CC(=O)Nc1ccc(S(=O)(=O)Nc2cccc(C(=O)NC(C)(C)C)c2)cc1	-3%
COc1ccccc1N1CCN(C(=O)c2ccccc2NC(=O)C2CCCCC2C(=O)O)CC1 (stereo unspecified)	-8%
CCCCOP(=O)(OCCCC)C(Nc1ccccc1)c1ccc2c(c1)OCO2 (stereo unspecified)	-10%
CC1CCCCN1CCNC(=O)c1cnn2ccccc12 (stereo unspecified)	-12%
COc1ccc(CNC(=O)C2CCN(C(=O)N(C)C)CC2)c(OC)c1	-8%
Cc1ccc(NC(=O)CSc2nnc(CN3CCOCC3)n2C)cc1C	-18%
O=[N+]([O-])c1ccccc1NCCOc1ccccc1	-25%
Cc1ccc(-n2nc3c(c2NC(=O)/C=C\c2ccc4c(c2)OCO4)CSC3)c(C)c1	?
Cc1cccc(CSc2nc3c(c(=O)[nH]2)CCCC3)c1	7.9µM*
O=C(O)CCNCC(=O)O	-1%
CC1CCC(NC(=O)CC(C)(C)Cc2nc3ccccc3c(=O)[nH]2)CC1 (stereo unspecified)	?
CC1=C(C(=O)Nc2ccc(Cl)cc2)C(c2cccs2)n2nnnc2N1 (stereo unspecified)	-10%
O=C(CSc1nnc(-c2cccs2)o1)N1CCc2ccccc21	-14%
COc1ccc(Br)cc1/C(C)=N/NC1=NCCN1	-8%
Cc1[nH]c2ccccc2c1NC(=O)CN1CCN(c2cccc(C(F)(F)F)c2)CC1	-14%
Cc1ccc(-n2nnnc2SCC(=O)N2CCN(C(=O)c3ccco3)CC2)c(C)c1	-5%
O=C(Nc1ccccc1)N1CCN(c2ccc(C(F)(F)F)cn2)CC1	-15%
O=C(COC(=O)CC1c2ccccc2CCN1S(=O)(=O)c1ccccc1)Nc1ccccc1 (stereo unspecified)	2%
Cn1cc(Br)c(C(=O)NNC(=O)c2cccc(Br)c2)n1	-6%
CSc1ccccc1NC(=O)CN(c1ccccc1)S(=O)(=O)N(C)C	1%
COc1ccc(NC(=O)/C(=C\c2cc(OC)c(OC)cc2[N+](=O)[O-])NC(=O)c2ccccc2)cc1	32µM*
CCOC(=O)c1cnc(-n2nc(C)cc2C)nc1NNc1cc(C)nc(-c2ccccc2)n1	-13%
C[C@H](O)C(=O)C1=Nc2c(nc(N)[nH]c2=O)NC1	-26%
COc1cc2nc(SCC(=O)NCc3ccco3)n(Cc3ccc(Cl)cc3)c(=O)c2cc1OC	-18%
CCOC(=O)C1=C(C)N=C2SCCC(=O)N2[C@@H]1/C=C/c1ccccc1	-10%
Cc1cccc(C)c1NC(=S)N/N=C/c1ccc(OCCC(C)C)cc1	-9%
COc1cccc(C(=O)Nc2ccc3c(c2)C(=O)c2ccccc2C3=O)c1	-20%

Part of the list above in order of formula weight, high to low.
SMILES	HPGD inh
CC(=O)NCc1ccc(S(=O)(=O)N/N=C/c2ccc(N(C)C)cc2)cc1	-16%
O=[N+]([O-])c1ccccc1NCCOc1ccccc1	-25%
c1cncc(-c2nnc(-c3cccnc3)nn2)c1	8.9µM*
Cc1ccc(C(=O)C2COC(=O)C2)cc1 (stereo unspecified)	-1%
CCOC(=O)OCC	-11%

Next structures follow:
SMILES	HPGD inh
O=C(N/N=C\c1ccc(Br)cc1)c1ccc(Cn2cccn2)o1	-6%
Cc1ccc(S(=O)(=O)C(c2ccccc2)c2c(C)noc2C)cc1 (stereo unspecified)	-9%
Cn1c(Oc2ccccc2NCc2cccc(Br)c2)cc(=O)n(C)c1=O	-9%
CCn1c(=O)n(CC)c2cc(S(N)(=O)=O)ccc21	-5%
O=C(O)c1cc2nc(C3CC3)cc(C(F)(F)F)n2n1	-12%
C1CCC(n2nnnc2CN2CCN(C3CCCC3)CC2)CC1	-10%
O=C(c1ccco1)N1CCN(C(=O)c2sccc2-c2ccccc2)CC1	-15%
O=C(O)c1ccccc1NS(=O)(=O)c1ccc2c3c(cccc13)C(=O)N2	-11%
CNS(=O)(=O)c1cccc(C(=O)OCc2cc(=O)n3cc(Br)ccc3n2)c1	?
CCOc1ccccc1N1CCN(C(=O)C2c3ccccc3Oc3ccccc32)CC1	-12%
COC(=O)c1cccc(N2C(=O)c3ccccc3S2(=O)=O)c1	25µM*
CC(C)OCCCNC(=O)C1CCC(=O)N1C(C)C (stereo unspecified)	-9%
CCCCCC(=O)N/N=C(\C)c1ccc(NC(=O)c2ccco2)cc1	-13%
CCc1ccccc1NC(=O)C1CCCN(S(=O)(=O)c2c(C)noc2C)C1 (stereo unspecified)	-10%
COC(=O)C(CC(C)C)NC(=O)c1cc(OC)c(OC)c(OC)c1 (stereo unspecified)	-6%
Cc1ccc2c(C(=O)CN3CCN(C4CCCCC4)CC3)c(C)[nH]c2c1	-15%
CCOC(=O)N1CCN(C(=O)c2cc3sccc3n2C)CC1	-13%
O=C(CN=C1NC(=O)C(c2ccccc2)(c2ccccc2)N1)NCc1ccc(F)cc1	1%
COc1ccc(Cc2nnc(NC(=O)CSc3ccccc3)s2)cc1	-4%
CCc1ccc(N2C(=O)CC(N3CCC(C(=O)OC)CC3)C2=O)cc1 (stereo unspecified)	0%
CC1CCN(C(=O)COC(=O)c2n[nH]c3ccccc23)CC1	?
CC(C)(C)C(=O)[C@@H]1[C@@H]2C(=O)N(Cc3ccccc3)C(=O)[C@@H]2[C@H]2c3ccccc3C=CN12	-15%
CCOC(=O)CCSc1nc(C(C)(C)C)cc(C(F)(F)F)c1C#N	?
O=C(CSc1nnc(-c2cc3ccccc3cc2O)n1Cc1ccco1)c1ccc(F)cc1	-18%
COc1ccc(C2c3sc(=O)[nH]c3SC3C4CCC(C4)C23)cc1OC (stereo unspecified)	-27%
CCCn1c(/C=N/Nc2nc3ccccc3[nH]2)nc2ccccc21	-19%
O=C(COc1ncnc2ccccc12)NC(=O)NCc1ccccc1	-7%
COc1cccc(NC(=O)C2CCCN(S(=O)(=O)c3ccc(-n4cnnn4)cc3)C2)c1 (stereo unspecified)	-18%
CC(=O)N/C(=C/c1ccc2c(c1)OCO2)C(=O)NCCO	-8%
O=C(CCCN1C(=O)c2cccc3cccc(c23)C1=O)N1CCc2ccccc2C1	?

The closing 7 entries of the part before lead into the next:
SMILES	HPGD inh
O=C(CSc1nnc(-c2cc3ccccc3cc2O)n1Cc1ccco1)c1ccc(F)cc1	-18%
COc1ccc(C2c3sc(=O)[nH]c3SC3C4CCC(C4)C23)cc1OC (stereo unspecified)	-27%
CCCn1c(/C=N/Nc2nc3ccccc3[nH]2)nc2ccccc21	-19%
O=C(COc1ncnc2ccccc12)NC(=O)NCc1ccccc1	-7%
COc1cccc(NC(=O)C2CCCN(S(=O)(=O)c3ccc(-n4cnnn4)cc3)C2)c1 (stereo unspecified)	-18%
CC(=O)N/C(=C/c1ccc2c(c1)OCO2)C(=O)NCCO	-8%
O=C(CCCN1C(=O)c2cccc3cccc(c23)C1=O)N1CCc2ccccc2C1	?
CC1(C)NC(=O)N(CC(O)COC2CCCCC2)C1=O (stereo unspecified)	0%
Cc1cccc2nc(CNc3ccc(F)cc3)cn12	-12%
CN(CCC#N)c1ncnc2scc(-c3ccccc3)c12	-12%
CC(=O)/C(N=Nc1ccc2c(c1)OCO2)=C(\C)O	-29%
Oc1cccc(O)c1O	10µM*
COC(=O)COc1ccc(S(=O)(=O)Nc2ccc3c(c2)OCCO3)cc1Cl	-12%
Cc1sc2ncn(CC(=O)N(CC(=O)NC3CCCC3)Cc3cccs3)c(=O)c2c1C	-9%

Only part of the results is shown, so the mix of outcomes need not match the whole.
